# Bioassay records: PubChem BioAssay, several laboratories
# Mtb betalactam: beta-lactam sensitization of Mtb H37Rv. AID 434955. 330,000 compounds, 0.27% hits. inhibition, % at 25 µM. M. tuberculosis H37Rv growth with meropenem, percent inhibition; hits of this screen are not shown here;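 active = about 74% or more and at least 40 points above the plate without the antibiotic, then above 30% in a dose series; inconclusive = first-round hits that could not be retested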;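 also: growth measured after seven days incubation then overnight dye step; 0% = bacteria only wells and 100% = bacteria with antibiotic; twin plates without the antibiotic show which effects depend on it; some results filed as inactive read as strong as hits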
# Mtb growth: M. tuberculosis H37Rv growth inhibitors, H37Rv strain (AID 1626); M. tuberculosis H37Rv growth inhibition; higher % means a stronger effect; inhibition, % at 10 µM, or IC50 in µM where a hit was titrated; 220,000 compounds, 0.95% hits;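 active = confirmed in a dose series; inconclusive = inhibition above 80% but not taken into the dose series; inactive = below 80% or under 30% at every dose of the series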;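 also: bacteria incubated seven days before Alamar blue readout; 0% = bacteria only wells and 100% = bacteria with antibiotic wells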
# Arbovirus anti: blocks arbovirus infection. arbovirus infection cell-based antiviral screen. inhibition, % at 10 µM. 200,000 compounds, 0.37% hits. AID 1251;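 active = inhibition from about 30%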;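 also: bluetongue infection of BSR cells; cell survival read as ATP light after 72 h; 0% = infected wells without compound and 100% = uninfected wells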
# RecA splice inh: blocks M. tuberculosis RecA intein splicing. P9WHJ3. cell-free RecA intein splicing, fluorescence. inhibition, %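 (about 9 µM by stock and volumes)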. 290,000 compounds, 0.75% hits; in the data active = inhibition above about 30%; inconclusive = no clear call, values can overlap the other calls;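 also: 0% = vehicle wells and 100% = reference inhibitor control wells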
# Target sequence (P9WHJ3 whole entry, looked up, canonical isoform): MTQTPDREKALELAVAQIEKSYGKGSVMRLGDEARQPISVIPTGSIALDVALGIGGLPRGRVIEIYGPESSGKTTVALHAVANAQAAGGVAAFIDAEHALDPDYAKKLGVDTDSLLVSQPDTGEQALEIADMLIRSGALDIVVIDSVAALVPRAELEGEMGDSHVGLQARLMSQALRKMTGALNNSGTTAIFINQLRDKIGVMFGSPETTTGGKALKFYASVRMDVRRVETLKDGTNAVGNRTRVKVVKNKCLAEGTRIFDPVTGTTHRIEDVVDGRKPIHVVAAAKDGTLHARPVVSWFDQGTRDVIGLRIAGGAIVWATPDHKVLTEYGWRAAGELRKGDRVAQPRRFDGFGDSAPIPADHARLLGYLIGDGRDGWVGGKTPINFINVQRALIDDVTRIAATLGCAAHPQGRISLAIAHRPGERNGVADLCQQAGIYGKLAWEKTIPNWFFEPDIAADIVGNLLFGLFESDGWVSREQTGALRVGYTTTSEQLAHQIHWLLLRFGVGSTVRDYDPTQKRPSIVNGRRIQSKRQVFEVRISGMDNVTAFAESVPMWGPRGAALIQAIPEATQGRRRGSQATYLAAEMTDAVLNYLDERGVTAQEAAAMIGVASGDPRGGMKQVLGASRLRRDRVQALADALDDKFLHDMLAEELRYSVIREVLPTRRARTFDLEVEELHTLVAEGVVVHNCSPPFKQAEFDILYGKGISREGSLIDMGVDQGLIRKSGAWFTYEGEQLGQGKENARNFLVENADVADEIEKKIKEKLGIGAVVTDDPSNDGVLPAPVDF
# YopH inh: blocks Yersinia enterocolitica YopH tyrosine phosphatase | fluorescence Ex485/Em525 | AID 898 | 140,000 compounds, 0.16% hits | inhibition, %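 (about 10 µM by stock and volumes)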;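 active = inhibition of 50% or more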;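 also: controls were vehicle for no effect and minimum signal wells for full effect; inactives centre near -20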
# Arbovirus anti repeat: recorded beside Arbovirus anti, whose call it bears; inhibition, %; measured here: 10K subset replicate screen; many hits read low in the repeat;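 first of two repeat runs on a subset; 0% = infected and 100% = uninfected wells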
# Active calls of the source: *; ? = inconclusive; . = not tested or not shown. The list is partial. The share of hits here may be higher or lower than overall.
SMILES,Mtb betalactam,Mtb growth,Arbovirus anti,RecA splice inh,YopH inh,others
O=C(O)c1ccccc1N/N=C/c1c(Sc2nnnn2-c2ccccc2)nc2ccccn2c1=O,0.3,-7.8%,.,.,.,
O=C1COc2ccc(C(=O)CSc3ccccc3C(=O)O)cc2N1,-2.3,-7.7%,.,-4.6,.,
CCc1ccccc1NC(=O)CNC(=O)CCc1nc2sc3c(c2c(=O)[nH]1)CCCC3,4.2,.,.,-3.5,.,
COC(=O)C1=C(N)OC2=C(C(=O)CC(C)(C)C2)C1c1ccoc1 (stereo not given),-0.7,-2.9%,-3.7,1.1,-30.5,
CCCn1nnnc1NCc1ccc(OC)cc1,1.7,.,.,-2.1,.,
Cc1ccc(NC(=S)NC(NC(=O)c2ccco2)C(Cl)(Cl)Cl)cc1 (stereo not given),-5.5,13.9%,-13.1,8.8,-24.1,
COc1ccc(C(=O)/C=C2/C(=O)Nc3ccccc32)cc1,74.9,.,.,2.9,.,
CC(OC(=O)c1nn(C)c(=O)c2ccccc12)C(=O)NC1CCCCC1C (stereo not given),-10.7,.,.,-3.1,.,
CO/N=C\CC(=O)Nc1ccc(Cl)cc1Cl,2.8,-4.6%,-11.6,-2.3,.,
C(=N\c1nccs1)/c1c[nH]c2ccccc12,0.2,-4.3%,2.2,3.2,-18.9,Arbovirus anti repeat=-1.5
Cc1ccccc1CSCCNC(=O)CSCc1ccc([N+](=O)[O-])cc1,2.6,.,-6.8,4.8,-11.5,
CCN1C(=NCc2cc(OC)c(OC)c(OC)c2)N[C@@H](c2ccccc2)[C@H](C(=O)OC)[C@H]1C,-12.6,.,.,1.7,.,
N#CC(C#N)=Cc1ccc(NC(=O)c2ccc(Br)cc2)cc1,1.3,-3.6%,.,3.9,.,
COc1ccc(/C=C/C(=O)NC(=S)NNC(=O)c2ccco2)cc1OC,-0.3,.,.,-3.2,.,
C#C[C@]1(O)CC[C@H]2[C@@H]3CCC4=CC(=O)CC[C@]4(C)[C@H]3CC[C@@]21C,-4.8,-3.5%,16.2,4.3,-39.2,

# Brought forward from above: 5 entries; new compounds follow.
SMILES,Mtb betalactam,Mtb growth,Arbovirus anti,RecA splice inh,YopH inh,others
Cc1ccccc1CSCCNC(=O)CSCc1ccc([N+](=O)[O-])cc1,2.6,.,-6.8,4.8,-11.5,
CCN1C(=NCc2cc(OC)c(OC)c(OC)c2)N[C@@H](c2ccccc2)[C@H](C(=O)OC)[C@H]1C,-12.6,.,.,1.7,.,
N#CC(C#N)=Cc1ccc(NC(=O)c2ccc(Br)cc2)cc1,1.3,-3.6%,.,3.9,.,
COc1ccc(/C=C/C(=O)NC(=S)NNC(=O)c2ccco2)cc1OC,-0.3,.,.,-3.2,.,
C#C[C@]1(O)CC[C@H]2[C@@H]3CCC4=CC(=O)CC[C@]4(C)[C@H]3CC[C@@]21C,-4.8,-3.5%,16.2,4.3,-39.2,
C=CCN=C1S/C(=C\c2ccc(N(C)C)cc2)C(=O)N1CC=C,0.8,-0.9%,.,-4.0,.,
Cn1c(/C=C/c2ccccc2)nc2ccccc21,4.1,0.9%,-20.6,0.3,.,
COC(=O)C1=C(c2cc3ccccc3s2)C[C@@H]2CC[C@H]1N2C(=O)NCCNC(C)=O,-5.2,-15.3%,.,-0.9,.,
c1csc(Cc2nc3ccccc3[nH]2)c1,0.9,1.5%,11.6,1.7,-37.1,Arbovirus anti repeat=1.9
NC(=O)c1ccc(NC(=O)c2ccc(CN3CCOCC3)cc2)cc1,7.6,-7.2%,4.3,0.1,0.5,
CCCCC1CCCC12NC(=O)NC2=O (stereo not given),-10.1,-3.1%,.,2.4,.,
O=Cc1[nH]c2ccccc2c1N(C(=O)CCl)c1ccc([N+](=O)[O-])cc1,-1.8,-1.3%,.,1.1,.,
Cc1cc(C)c(NC(=O)CNC(=O)COC(=O)C2=COCCO2)c(C)c1,7.5,.,.,0.5,.,
Cn1c(=O)c(NCCc2ccccc2)c2c3c(cccc31)C(=O)c1ccccc1-2,91.0,6.2%,-3.1,-95.4,-5.8,
CCOc1ccc2nc(N(CCN(C)C)C(=O)c3cc4ccccc4cc3OC)sc2c1,?,.,.,7.1,.,
O=C1CC(Sc2ccc(Cl)cc2)C(=O)N1Cc1ccncc1 (stereo not given),-10.9,11.2%,.,-3.6,.,
COc1ccc(-n2c(C)c(C(C)=O)c3cc(O)ccc32)cc1,.,.,0.1,1.4,-23.7,
Cc1cc(C(=O)OCC(=O)NNC(=O)c2cccs2)ccc1[N+](=O)[O-],0.7,.,.,-1.1,.,
CCCc1nc2c(s1)CCc1onc(-c3ccc(Br)cc3)c1-2,62.8,12.0%,.,0.8,.,
Cc1nn(C)c(C)c1S(=O)(=O)N(CC(=O)NCCCN1CCC(C)CC1)c1ccc(C(C)C)cc1,1.5,.,.,8.0,.,
CCN1CCCC1CNC(=O)Cn1cnc2ccc(S(=O)(=O)N3CCC(C)CC3)cc2c1=O (stereo not given),-9.7,-6.7%,0.8,0.5,-30.3,
COc1ccc(C(CNC(=O)CCNC(=O)c2ccc(Br)cc2)N2CCOCC2)cc1 (stereo not given),-2.9,.,.,-0.9,.,
COCCn1ccc(O)c(Cc2ccccc2)c1=O,-1.1,-8.5%,-3.7,-1.4,-25.1,
O=C(CNC(=O)c1ccc(S(=O)(=O)N2CCCC2)cc1)N/N=C/c1ccco1,7.6,-1.6%,-3.0,.,.,
O=C(Nc1ccc([N+](=O)[O-])cc1)Nc1ccc2[nH]c(=O)[nH]c2c1,0.9,-1.0%,1.2,-1.6,.,
CCN(CC(=O)Nc1ccccc1C(F)(F)F)C(=O)CCc1ccccc1,-5.0,.,.,2.2,.,
O=S(=O)(NC1CCCCCCC1)c1ccccc1F,-0.5,.,.,-0.2,.,
O=C(O)c1ccc(CSc2nc3ccc(N4C(=O)C5C6C=CC(C6)C5C4=O)cc3s2)cc1 (stereo not given),0.5,-3.4%,6.7,0.7,-16.6,
Cc1cc(CSCc2ccc(Cl)cc2)no1,4.7,.,.,2.4,.,
Cc1c(C(=O)NCC2COc3ccccc3O2)oc2ccc(S(=O)(=O)N(C)C3CCCCC3)cc12 (stereo not given),13.8,-3.0%,1.7,5.0,-20.6,
Cc1noc2ncnc(Oc3cc(Cl)ccc3Cl)c12,1.3,5.5%,0.1,-1.6,.,
CCOC(=O)N1CCC(NC(=O)C2CCC(CNS(=O)(=O)c3ccc(OC)cc3)CC2)CC1 (stereo not given),.,-10.7%,-2.8,.,-34.1,
N#Cc1ccc(C(=O)CSc2nnc(-c3ccc(C(F)(F)F)cn3)s2)cc1,3.6,-1.4%,.,1.1,.,
COCCn1c(SCC(=O)NC2CCCC2)nc2c(c1=O)SCC2,2.5,.,.,0.0,.,
O=C(CSc1nnc(-c2cccc(Cl)c2)o1)Nc1ccc2c(c1)OCCO2,-13.2,-4.5%,4.0,-3.0,3.2,
Fc1ccccc1OCCCCn1cncn1,-5.5,0.9%,5.6,0.3,-8.9,
CN(C(=O)C(Cl)Cl)C1CC2C=CC1C2 (stereo not given),-3.6,-2.1%,.,-0.6,.,
CCN(CC)CC(=O)N1c2ccccc2CCc2ccc(NC(=O)c3cc(OC)c(OC)c(OC)c3)cc21,-4.2,-3.2%,.,1.3,.,
CCOc1ccc(C(=O)C[n+]2cccc3cc(C)ccc32)cc1,3.5,.,.,-2.3,.,
CCC(=O)NNC(=O)CCC(=O)Nc1ccccc1,.,.,-3.1,-0.8,-9.0,
O=C(Nc1cccc(O)c1)c1cccc(C(=O)Nc2cccc(O)c2)c1,10.4,.,.,-1.8,.,
Cc1ccccc1Cn1cc(NC(=O)c2cc(-c3ccco3)on2)cn1,-2.2,-1.5%,-28.2,0.9,.,
CC(C)(C)c1ccc(S(=O)(=O)N2CCN(C3CCCC3)CC2)cc1,0.1,.,.,0.7,.,
COc1cc(C)ccc1S(=O)(=O)n1nc(C)cc1C,-4.0,-12.7%,1.7,-0.8,.,
CC1CC=C(c2ccccc2)C(=S)N1 (stereo not given),-6.4,2.7%,.,-1.3,.,
Cc1ccc(N=Cc2sccc2C)cc1C,1.8,5.0%,6.6,0.4,6.5,
O=[N+]([O-])c1cc(-c2cnc3ccccc3n2)ccc1Oc1ccc(Br)cc1,-0.8,-13.7%,5.4,1.1,-13.9,
CC(=O)Nc1ccc(S(=O)(=O)NC2CC3CCC2C3)cc1 (stereo not given),5.5,.,.,2.1,.,
Cc1cs/c(=N\N=C\c2ccccc2)n1Cc1ccco1,3.2,6.9%,20.1,.,-28.2,
O=C(NC1CCN(S(=O)(=O)c2ccccc2)CC1)c1cccc(F)c1,1.1,.,.,-1.7,.,
O=C(c1ccc2[nH]ccc2c1)N1CCCC(Nc2ccccc2)C1 (stereo not given),-4.1,.,.,8.5,.,
COCC1CCCC1OS(N)(=O)=O (stereo not given),3.5,.,.,-0.7,.,
O=C(CSc1cccc[n+]1[O-])Nc1cc(S(=O)(=O)N2CCOCC2)ccc1Cl,0.4,-1.1%,-5.2,-2.4,-31.6,
Cc1ccccc1NC(=O)CC(O)(C(F)(F)F)C(F)(F)F,0.7,2.1%,3.5,-1.9,-16.1,
Nc1ccccc1C(=O)NCc1ccc(Cl)cc1,6.7,12.2%,5.3,5.1,-21.8,
CC(CC(=O)NNC(=O)c1cccc(Cl)c1)c1ccccc1 (stereo not given),11.9,.,.,-0.7,.,
COc1cc2c(cc1OC)CN(CC(=O)Nc1ccc(Cl)cc1Cl)CC2,6.8,.,.,-0.2,.,
Nc1cc(-c2ccccc2)nn1S(=O)(=O)c1ccc(Br)cc1,6.0,12.3%,8.8,-0.6,-23.0,
O=C(N1CCC(n2nc(-c3ccccc3)oc2=O)CC1)C1(c2ccccc2)CC1,-2.1,.,.,1.5,.,
O=C(CSCc1ccc(Cl)cc1)Nc1ccc2c(c1)OCO2,86.2,64.3%,-32.5,1.4,-25.7,
Cc1cc2[nH]c(=O)c3ccccc3n2n1,-9.5,-8.4%,0.9,0.8,19.6,
CCC(C)(C)NC(=O)CN(Cc1ccc(OC)cc1)C(=O)CCC(=O)Nc1nccs1,-2.4,.,.,7.7,.,
Cc1cccc(C)c1OCC(=O)N/N=C/c1ccncc1,1.8,-3.0%,0.1,-1.8,-24.0,
CN(CC(=O)Nc1ccccc1Cl)C(=O)COC(=O)Cc1ccc(F)cc1,-15.7,.,.,-0.1,.,
CCOc1ccc(NC(=O)CCn2nc(C)c(S(=O)(=O)N3CCCCC3)c2C)cc1,3.2,.,.,-0.8,.,

# The closing three entries of the part above lead into the next.
SMILES,Mtb betalactam,Mtb growth,Arbovirus anti,RecA splice inh,YopH inh,others
Cc1cccc(C)c1OCC(=O)N/N=C/c1ccncc1,1.8,-3.0%,0.1,-1.8,-24.0,
CN(CC(=O)Nc1ccccc1Cl)C(=O)COC(=O)Cc1ccc(F)cc1,-15.7,.,.,-0.1,.,
CCOc1ccc(NC(=O)CCn2nc(C)c(S(=O)(=O)N3CCCCC3)c2C)cc1,3.2,.,.,-0.8,.,
C/C(N)=C(/C#N)C(=O)CSc1nc2ccccc2c(=O)n1Cc1ccc(C)cc1,0.8,1.4%,-7.8,.,.,
CC(C)c1ccc(/C=N/n2nnnc2Nc2ccccc2)cc1,6.6,3.0%,-7.1,-2.8,3.8,
Cc1c(C(=O)OCC(C)C)[nH]c2c1C(=O)CC(c1ccco1)C2 (stereo not given),?,3.1%,-21.8,1.2,-14.8,
Cc1c(C2N3CC4(C)CN2CC(C)(C3)C4=O)c2ccccc2n1C (stereo not given),?,-3.9%,-4.7,-1.1,7.9,
COc1ccc2c(c1)[nH]c1c(=O)n(Cc3ccco3)cnc12,1.1,.,-0.3,-1.9,-19.3,
